# Imprint erasure = qHTS Assay for Compounds that Induce Erasure of Genomic Imprints | mouse ES Peg3-LacZ reporter, beta-gal luminescence, 40 h | Potency, µM (doses to about 60.7 µM), without a hit: at the top dose activity change, positive = activation, usual class: activators | actives 0.02% (n = 110,000) | AID 1948, 2009; active = well fitted activation curve with a large enough effect; inconclusive = small, poorly fitted or top-dose-only effect; inactive = no such curve, though single readings can be large or run the other way;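 also: 0% = negative control wells on the plate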
#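 Gelatin-coated wells received 300 freshly trypsinized female ES cells with a Peg3LacZ-Neo reporter on the maternal allele, then incubated 40 hours at 37C. BetaGlo was added for 5 minutes at room temperature before a single luminescence read.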
# IkB signaling = IkB Signaling; Potency, µM (titrated, usually from 57.1 µM), for inactives: top-dose IkBa stabilization activation; AID 445, 2006; ABC-DLBCL IkBa-CBG/CBR dual luciferase ratio, 4 h; response scale: scaled: untreated 0%, proteasome inhibitor 100%; actives 0.04% (n = 110,000); active = well fitted curve in the direction sought with a large enough effect in the signal ratio, not every such curve was filed as active; inconclusive = small, poorly fitted or top-dose-only effect, or a change in a side signal; the % refers to the signal ratio;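 also: the direction sought is a rising ratio; 0% = basal untreated cells and 100% = reference inhibitor full response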
#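 Curves were fitted separately to fusion (green), unfused (red) and ratio luminescence, then classed by r2, magnitude and activity. Cells: OCI-Ly3, 4 h compound plus doxycycline at 37C; 10 uM MG-132 defined full response.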
# An asterisk follows results filed as active; ? = inconclusive; nt = no result given; & = joins results of further samples; [ ] = dose if it differs, or a comment. Potency is read from the fitted curve at half-maximal effect. The list is partial, and most or all hits are left out here.
Imprint erasure | IkB signaling | molecule
-15%[16.8 µM] | -0.6%[25.6 µM] | COc1ccc(C[C@@H]2c3cc(OC)c(OC)cc3CC[N@+]2(C)CCC(=O)OCCCCCOC(=O)CC[N@@+]2(C)CCc3cc(OC)c(OC)cc3[C@H]2Cc2ccc(OC)c(OC)c2)cc1OC
3% | -0.8% | OCc1ccccc1
9%[10.9 µM] | ? | CCc1oc2ccccc2c1C(=O)c1cc(Br)c(O)c(Br)c1
-18% | -1.6% | COc1ccc2nc(N)sc2c1
-7% | 2.5% | Cn1c(=O)c2[nH]cnc2n(C)c1=O
5% | -0.1% | CC(=O)OCP(C)(=O)COC(C)=O
5% | 2.4% | c1ccc(-c2nc[nH]c2-c2ccccc2)cc1
-9%[10.9 µM] | 1.7%[11.4 µM] | O=C(O)[C@@H]1CCCN1
-1% | -0.1% | O=C(O)Cc1cccc2ccccc12
-30%[inhibitor] | nt | NCC(O)c1ccc(O)c(O)c1 (centres undefined)

# By substructure: the entries above with nitrogen in an aromatic ring
Imprint erasure | IkB signaling | molecule
-18% | -1.6% | COc1ccc2nc(N)sc2c1
-7% | 2.5% | Cn1c(=O)c2[nH]cnc2n(C)c1=O
5% | 2.4% | c1ccc(-c2nc[nH]c2-c2ccccc2)cc1

# Next results.
Imprint erasure | IkB signaling | molecule
-4%[16.8 µM] | 0.3%[25.6 µM] | CCN(CC)CC#CCOC(=O)[C@@](O)(c1ccccc1)C1CCCCC1
-5% | nt | CC(CCC(=O)O)C1CCC2C3C(=O)CC4CC(=O)CC[C@@]4(C)C3CC(=O)[C@]12C (some centres undefined)
-4% | 0.1% | O=C(O)c1ccccc1C(c1ccc(O)cc1)c1ccc(O)cc1
0% | 1.4% | OC[C@H]1O[C@@H]2O[C@H]3[C@H](O)[C@@H](O)[C@@H](O[C@H]4[C@H](O)[C@@H](O)[C@@H](O[C@H]5[C@H](O)[C@@H](O)[C@@H](O[C@H]6[C@H](O)[C@@H](O)[C@@H](O[C@H]7[C@H](O)[C@@H](O)[C@@H](O[C@H]1[C@H](O)[C@H]2O)O[C@@H]7CO)O[C@@H]6CO)O[C@@H]5CO)O[C@@H]4CO)O[C@@H]3CO
-13% | 1.1%[25.6 µM] | COc1ccc2cc([C@H](C)C(=O)O)ccc2c1
10% | 0.6% | Cc1ccc(S(=O)(=O)Nc2nc(C)cc(NCCN)n2)cc1
-9% | nt | CC1O[C@@H](O[C@@H]2C(O)C[C@H](O[C@@H]3C(O)C[C@@H](OC4CC[C@@]5(C)C6CC(O)[C@@]7(C)C(C8=CC(=O)OC8)CC[C@@]7(O)C6CC[C@@H]5C4)OC3C)OC2C)CC(O)[C@H]1O (some centres undefined)
-6% | -0.5% | CCSc1nnc(NC(=O)CSc2nnc(Cc3cccn3C)n2-c2ccc(C)cc2)s1
-2%&-2% | -0.2% | CC(=O)OCC(COC(C)=O)OC(C)=O
-13%&-3% | nt | CN1Cc2c(N)cccc2C(c2ccccc2)C1 (centres undefined)

# Profiles, looked up by structure. Order of screens: Imprint erasure, IkB signaling
# `OC[C@H]1O[C@@H]2O[C@H]3[C@H](O)[C@@H](O)[C@@H](O[C@H]4[C@H](O)[C@@H](O)[C@@H](O[C@H]5[C@H](O)[C@@H](O)[C@@H](O[C@H]6[C@H](O)[C@@H](O)[C@@H](O[C@H]7[C@H](O)[C@@H](O)[C@@H](O[C@H]1[C@H](O)[C@H]2O)O[C@@H]7CO)O[C@@H]6CO)O[C@@H]5CO)O[C@@H]4CO)O[C@@H]3CO` is listed as 0%, 1.4%
# `CC(CCC(=O)O)C1CCC2C3C(=O)CC4CC(=O)CC[C@@]4(C)C3CC(=O)[C@]12C` (some centres undefined) is listed as -5%, nt
# `CC1O[C@@H](O[C@@H]2C(O)C[C@H](O[C@@H]3C(O)C[C@@H](OC4CC[C@@]5(C)C6CC(O)[C@@]7(C)C(C8=CC(=O)OC8)CC[C@@]7(O)C6CC[C@@H]5C4)OC3C)OC2C)CC(O)[C@H]1O` (some centres undefined) is listed as -9%, nt

# More structures.
Imprint erasure | IkB signaling | molecule
-21% | 1.5% | CN1CCN2c3ncccc3Cc3ccccc3C2C1 (centres undefined)
0% | -0.9% | Cc1ccc(Br)cc1
7% | -0.6% | CC1=C(CC(=O)O)c2cc(F)ccc2/C1=C\c1ccc(S(C)(=O)=O)cc1
3% | 0.2% | CSc1nc(N2CCOCC2)c2c3c(sc2n1)CCC3
4% | -0.6% | CC(C)C(C)C
-1% | 1.6% | O=C1OC(=O)c2c(Br)c(Br)c(Br)c(Br)c21
-33%[inhibitor][16.8 µM] | ? | Nc1ncn([C@H]2O[C@@H](CO)[C@@H](O)[C@@H]2O)c(=O)n1
-15% | 1.0%[25.6 µM] | CC(C)OC(=O)C(C)(C)Oc1ccc(C(=O)c2ccc(Cl)cc2)cc1
-11% | nt | Cc1nnc(SCC2=C(C(=O)O)N3C(=O)C(NC(=O)Cn4cnnn4)[C@@H]3SC2)s1 (some centres undefined)
-6%[10.9 µM] | -0.4%[11.4 µM] | O=S1(=O)OC(c2ccc(O)cc2)(c2ccc(O)cc2)c2ccccc21
-5% | -10% | CCC(=O)c1ccc2c(c1)N(CCCN(C)C)c1ccccc1S2
4% | 0.5% | O=Cc1ccccc1Cl
2% | nt | CC(=O)OCC(CCn1cnc2cnc(N)nc21)COC(C)=O
-13% | 0.5% | Cc1ccc(SCc2nc(-c3cccnc3)no2)cc1
-14%[10.9 µM] | -0.7% | Fc1ccc(-n2ncc3c(NCCC4=CCCCC4)ncnc32)cc1
3% | nt | CSCCC(NC=O)C(=O)NC(CC(C)C)C(=O)NC(Cc1ccccc1)C(=O)O (centres undefined)
nt | -1.1% | N#CC1=C(N)Oc2c(oc(CO)cc2=O)C12C(=O)Nc1ccc(Cl)cc12 (centres undefined)
-14% | nt | CC(C)C[C@H]1C(=O)N2CCC[C@H]2[C@]2(O)O[C@](NC(=O)[C@@H]3C=C4c5cccc6[nH]c(Br)c(c56)C[C@H]4N(C)C3)(C(C)C)C(=O)N12
2% | nt | NCCCCC(NC(CCc1ccccc1)C(=O)O)C(=O)N1CCCC1C(=O)O (centres undefined)
-18%[10.9 µM] | ? | COc1ccc(C2C(=O)N(C3CCCCCC3)CC(=O)N2CCC2=CCCCC2)cc1 (centres undefined)
-22% | ? | CNCCCC12CCC(c3ccccc31)c1ccccc12
-6% | 0.6% | CCOCCCn1c(=N)c(C(=O)NCc2ccc3c(c2)OCO3)cc2c(=O)n3cccc(C)c3nc21
0% | 0.7% | Nc1cccc(O)c1
-6% | 1.3% | CC(C)CO
-8%&-35% | nt | NC1CONC1=O (centres undefined)
-11% | ? | Cc1sc2ncnc(N3CCN(c4ncccn4)CC3)c2c1C
-30%[inhibitor] | ? | Oc1ccc2cc(SSc3ccc4cc(O)ccc4c3)ccc2c1
-4% | -1.4% | c1ccc2c(c1)ccc1ncccc12
-20% | 0.0% | CC(=O)Nc1cccc(NC(=O)CSc2nnc(Cc3cccn3C)n2-c2ccc(F)cc2)c1
-4%[16.8 µM] | 0.5%[25.6 µM] | CCN(CC)CCOC(=O)[C@@H](Cc1cccc2ccccc12)C[C@@H]1CCCO1

# Taken from above.
# Imprint erasure with `CCN(CC)CCOC(=O)[C@@H](Cc1cccc2ccccc12)C[C@@H]1CCCO1` = -4%[16.8 µM]
# Imprint erasure with `Oc1ccc2cc(SSc3ccc4cc(O)ccc4c3)ccc2c1` = -30%[inhibitor]

# (listing goes on)
Imprint erasure | IkB signaling | molecule
2%[10.9 µM] | 0.7%[11.4 µM] | CN1CCCC[C@@H]1CCN1c2ccccc2Sc2ccc(S(C)=O)cc21 (some centres undefined)
-24%&-15% | ? | COc1cc(/C=C/C(=O)CC(=O)/C=C/c2ccc(O)c(OC)c2)ccc1O
-66%[inhibitor] | nt | C/C1=C2N=C(/C=C3N=C(/C(C)=C4\[N-]C(C)(C5N=C1C(C)(CCC(=O)NCC(C)OP(=O)([O-])O[C@H]1C(O)C(n6cnc7cc(C)c(C)cc76)O[C@@H]1CO)C5CC(N)=O)C(C)(CC(N)=O)C4CCC(N)=O)C(C)(CC(N)=O)C\3CCC(N)=O)C(C)(C)C/2CCC(N)=O.[CH2-]C1OC(n2cnc3c(N)ncnc32)C(O)C1O.[Co] (some centres undefined)
0% | -1.9%[25.6 µM] | NC(N)=NS(=O)(=O)c1ccc(N)cc1
25%[16.8 µM] | 0.7%[25.6 µM] | COc1c(O[C@H]2O[C@@H](CO)[C@@H](O)[C@@H](O)[C@@H]2O)cc2c(c1OC)-c1ccc(SC)c(=O)cc1[C@H](NC(C)=O)CC2
-5%[16.8 µM] | -0.7%[25.6 µM] | COC(=O)C1=C(C)NC(C)=C(C(=O)OC(C)C)[C@H]1c1cccc2nonc12
-3% | nt | CCOC(=O)OC(C)OC(=O)C1N2C(=O)C(NC(=O)C(N)c3ccccc3)C2SC1(C)C (centres undefined)
-2% | 2.7% | O=C1CCCCC1
-6%&-3% | nt | COc1ccc(/C=C/C(=O)O)cc1OC
-10% | nt | COC1=CC(=O)CC(C)C12Oc1c(Cl)c(OC)cc(OC)c1C2=O (centres undefined)
18%&-31% | nt | Nc1ccn(C2OC(CO)C(O)C2O)c(=O)n1 (centres undefined)
-7%[16.8 µM] | -1.8%[25.6 µM] | O=C1NCCN1c1ncc([N+](=O)[O-])s1
-17%[16.8 µM] | 0.7%[25.6 µM] | CN1CCN([C@@H](c2ccccc2)c2ccc(Cl)cc2)CC1
-9% | 1.2% | COC(=O)Nc1ccc2c(c1)N(C(=O)CCN1CCN3CCCC3C1)c1ccccc1CC2 (centres undefined)
4% | 2.3% | CCOc1cc(C)c(Cl)cc1S(=O)(=O)N(C)C
1% | -1.0% | CCOC(C)OCC
-5% | -3.5% | Cc1cccc(Nc2ccccc2)c1
-10% | ? | C[C@@H]1C[C@@H]2[C@H]3CCC4=CC(=O)C=C[C@]4(C)[C@]3(F)[C@@H](O)C[C@@]2(C)[C@@]1(O)C(=O)CO
-2% | -2.8% | CCCCCC/C(C=O)=C\c1ccccc1
7% | 0.6% | COc1cc([C@@H]2c3cc4c(cc3[C@@H](O[C@@H]3O[C@H]5CO[C@@H](C)O[C@@H]5[C@@H](O)[C@H]3O)[C@@H]3COC(=O)[C@@H]23)OCO4)cc(OC)c1O

# Three compounds already listed, sorted by formula weight, rising.
Imprint erasure | IkB signaling | molecule
-7%[16.8 µM] | -1.8%[25.6 µM] | O=C1NCCN1c1ncc([N+](=O)[O-])s1
4% | 2.3% | CCOc1cc(C)c(Cl)cc1S(=O)(=O)N(C)C
7% | 0.6% | COc1cc([C@@H]2c3cc4c(cc3[C@@H](O[C@@H]3O[C@H]5CO[C@@H](C)O[C@@H]5[C@@H](O)[C@H]3O)[C@@H]3COC(=O)[C@@H]23)OCO4)cc(OC)c1O

# Later entries
Imprint erasure | IkB signaling | molecule
-92%[inhibitor] | ? | COc1ccc(-c2nc(-c3ccccc3)no2)c(OC)c1
-25% | -0.3%[25.6 µM] | O=C(CCCN1CCN(c2ccccn2)CC1)c1ccc(F)cc1
-5%[10.9 µM] | -1.4%[11.4 µM] | O=C(O)c1ccc(C(=O)O)c(C(=O)O)c1.[NH-][C@@H]1CCCC[C@@H]1[NH-].[Pt]
-8%&-9% | nt | CCN(Cc1ccncc1)C(=O)C(CO)c1ccccc1 (centres undefined)
-11% | ? | CCN(C(=O)COc1cc(=O)n(CC)c2ccccc12)c1cc(Cl)ccc1OC
-2% | 0.2% | O=[N+]([O-])c1cccc(Cl)c1Cl
-11% | ? | C/C=C/C=C/C=O
-6% | -3.7% | N[C@@H](Cc1c[nH]c2ccccc12)C(=O)O
-2% | nt | C[C@H]1[C@H]2CC[C@H]3[C@@H]4CC=C5C[C@@H](N(C)C)CC[C@]5(C)[C@H]4CC[C@]23CN1C
18% | -1.9% | CCOc1ccccc1C(=O)N(Cc1cccs1)C1CCS(=O)(=O)C1 (centres undefined)
-3% | -3.9% | O=S(=O)(c1cccc2nsnc12)N1CCN(c2ncccn2)CC1
-5%&8% | nt | O=C(C1CCCCC1)N1CC(=O)N2CCc3ccccc3C2C1 (centres undefined)
-13% | -1.7%[25.6 µM] | COc1c2occc2c(OC)c2c(=O)cc(C)oc12
-6% | nt | CC(C(=O)O)c1cccc(Oc2ccccc2)c1 (centres undefined)
-36%[inhibitor] | 3.4% | CN(C)CCOC(c1ccccc1)c1ccccc1 (tested in a mixture with another compound)
-3% | 0.6% | O=C(Cl)c1c(Cl)cccc1Cl
-11% | 0.6%[25.6 µM] | O=c1n(CCCN2CCN(c3cccc(Cl)c3)CC2)nc2ccccn12
-6% | 0.8% | COc1ccccc1N1CCN(CCCC(=O)c2ccc(F)cc2)CC1
6% | 0.1% | COCCN(CCOC)C(=O)CCn1c(=O)oc2ccccc21
-15%[16.8 µM] | ? | CC(C)C[C@H]1C(=O)N2CCC[C@@H]2[C@]2(O)O[C@](NC(=O)[C@H]3C=C4c5cccc6[nH]c(Br)c(c56)C[C@H]4N(C)C3)(C(C)C)C(=O)N12
-7%[16.8 µM] | 1.2%[25.6 µM] | CC(=O)Nc1c(I)c(C(=O)N[C@H]2[C@@H](O)[C@H](O)[C@H](CO)O[C@@H]2O)c(I)c(N(C)C(C)=O)c1I
-9% | 3.0% | C/C=C1/C(=O)C[C@H]2[C@@H]3CCC4=CC(=O)CC[C@]4(C)[C@H]3CC[C@]12C

# Compound activity as filed in PubChem BioAssay.
